Screening data: PubChem BioAssay, National Center for Advancing Translational Sciences (NCATS)
VDR inhibitor = inhibitors of human vitamin D receptor. P11473. actives 0.93% (n = 400,000). VDR-SRC2-3 peptide fluorescence polarization, 2 h. Potency, µM, without a hit: max response, negative = inhibition, most hits filed as inhibitors; active = well fitted inhibition curve with a large enough effect; inconclusive = small, poorly fitted or top-dose-only effect, or another doubt; inactive = no such curve, though single readings can be large or run the other way; also: series mostly up to about 120 µM
Target sequence (P11473 whole entry, looked up): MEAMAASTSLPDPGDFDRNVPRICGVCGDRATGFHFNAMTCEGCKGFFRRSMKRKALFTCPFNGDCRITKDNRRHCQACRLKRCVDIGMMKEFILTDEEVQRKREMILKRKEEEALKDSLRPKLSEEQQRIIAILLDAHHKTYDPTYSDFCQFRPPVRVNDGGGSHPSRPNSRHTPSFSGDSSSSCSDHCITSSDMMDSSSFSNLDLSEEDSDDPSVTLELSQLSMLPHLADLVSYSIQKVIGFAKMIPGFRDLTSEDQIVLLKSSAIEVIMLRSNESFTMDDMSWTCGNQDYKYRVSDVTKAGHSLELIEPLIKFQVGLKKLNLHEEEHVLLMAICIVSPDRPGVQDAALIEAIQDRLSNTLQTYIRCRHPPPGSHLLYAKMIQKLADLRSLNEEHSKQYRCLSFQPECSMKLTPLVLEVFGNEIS
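FP read-out; VDR + SRC2-3 coactivator peptide; 23 nl compound by pintool; 2 h RT incubation; reagents held at 4 deg C, protected from light.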
The depositor's hits bear a star; ? = inconclusive; & = joins results of further samples; [ ] = remark or other dose. % is scaled to controls: 0 for no effect and ±100 for the full control effect; potency is read from the fitted curve at half-maximal effect.

SMILES | VDR inhibitor
C#CCCOC(=O)N1C2=NC(C(=O)OC)=C(C(=O)OC)[C@@H]3N(C)c4ccccc4[C@]23C[C@H]1C(=O)OC | 5%
Cc1ccc(C(=O)CSc2nnc3c4ccccc4nc(Cc4ccccc4)n23)cc1 | -4%
O=C(COC(=O)c1cccc(Br)c1)Nc1cccc2c1C(=O)c1ccccc1C2=O | 5%
Cc1cccc(OCC(=O)OC2CCN(C)CC2)c1 | 1%
CC(C)CCn1c(SCc2cccc(F)c2)nc2ccsc2c1=O | -2%
Cc1cc(C)c(-c2noc(C(=O)OC(C)(C)C)c2C(=O)OC(C)(C)C)c(C)c1 | 0%
Cc1cc(OCC(F)(F)C(F)(F)C(F)(F)C(F)(F)C(F)(F)C(F)F)nc(N)n1 | -5%
CCc1ccc2occ(CC(=O)Nc3c(C(=O)c4ccccc4)oc4ccccc34)c2c1 | 14%
Cc1nc2nc(-c3cccnc3)[nH]n2c(=O)c1C | -11%
CCSCCOC(=O)C1=C(C)NC2=C(C(=O)CCC2)C1c1coc2ccccc2c1=O (configuration not stated) | -1%
CCCCc1ccc(-c2ccc(Br)cc2)nc1 | 5%
COC(=O)c1ccc(NC(=O)CSc2ccccc2)cc1 | 50µM*
c1ccc(Nc2ccccn2)nc1 | 1%
CC(NC=O)c1nc2ccccc2n1CCc1ccccc1 (configuration not stated) | -10%
C#CCO[C@@H]1C[C@H](n2ccc(NC(=O)c3ccccc3)nc2=O)O[C@@H]1CO | -17%
CCn1nnnc1NCc1ccc(OCc2ccc(F)cc2Cl)c(OC)c1 | 5%
COc1ccc(/C=C/C(=O)NCCSCc2ccco2)cc1OC | -17%
CC(=O)c1c(C)oc2c1cc(NS(=O)(=O)c1ccc(C(C)(C)C)cc1)c1ccccc12 | -29%
COc1cc(CC(=O)Nc2nc(C)cs2)cc(OC)c1OC | -11%
CCOc1ccc(OCC)c(-c2c(=O)n(OCc3ccccc3Br)c3ccccc3[n+]2[O-])c1 | -7%
CCC[C@H](NC(C)=O)C(=O)N[C@H]1CC(=O)ONCCCC[C@@H](C(N)=O)NC(=O)[C@H](Cc2c[nH]c3ccccc23)NC(=O)[C@H](CCCN=C(N)N)NC(=O)[C@@H](Cc2ccc3ccccc3c2)NC(=O)[C@H](Cc2cnc[nH]2)NC1=O | 6%
COc1cc(NC(=O)COC(=O)/C=C/c2ccc(O)c(OC)c2)cc(OC)c1 | -2%
Cc1ccc(C(=O)NCC(=O)OCC(=O)NC(C)c2ccccc2)s1 (configuration not stated) | -21%
Cc1cc(-n2ccnc2)n2c(nc3ccccc32)c1C#N | -9%
O=C(CSCCN1C(=O)c2ccccc2C1=O)Nc1ccc2ccccc2c1 | 2%
COc1ccc(N2CCN(C(=O)CCNS(=O)(=O)c3ccccc3)CC2)cc1 | ?
Cc1cc(CN(C)C(=O)c2ccc(OC3CCN(Cc4ccccn4)CC3)cc2)on1 | -1%
Cc1ccc(S(=O)(=O)N(C)C)cc1NC(=O)c1ccc2ccccc2n1 | 11%
COc1ccc(Oc2ccc(N/C=C/C(=O)C(C)(C)C)cc2)cc1 | -13%
COc1ccc(S(=O)(=O)Nc2ccc(N(C)C(C)=O)cc2)cc1 | 7%
O=C1C(=O)N(Cc2ccccc2)C(c2cccc(O)c2)/C1=C(\O)c1ccc2c(c1)OCCO2 (configuration not stated) | -8%
O=C(/C=C/c1ccccc1)c1ccc(O)cc1 | 45µM*
CC/C(=C/c1ccccc1)c1cccc2[nH]c3c(OC)cccc3c12 | 1%
CCN1CCc2c(OCc3ccc(C(=O)OC)o3)cccc2C1=O | 17%
COc1ccc(-c2cc(C(=O)N3CCN(c4ccccc4O)CC3)c3ccccc3n2)cc1OC | 4%
COc1cc(C(=O)Oc2ccc3ccc(O)cc3c2)cc(OC)c1OC | -18%
Cc1cc(SCC(=O)N/N=C/c2ccc(O)c(O)c2O)c(C)cc1Br | -18%
O=C(Nc1c(-c2ccccc2)nc2ccccn12)c1cccs1 | -8%
CCCC(=O)NC(C)c1nc2ccccc2n1C(C)C (configuration not stated) | -9%
Cc1noc(C)c1-c1csc(N2CCC(C(N)=O)CC2)n1 | -23%
CCOC(=O)c1c(NC(=O)COc2ccc(C)cc2C(C)(C)C)sc2c1CCC(C)C2 (configuration not stated) | 1%
CCOC(=O)C1=C(C)NC(=O)C(C(N)=O)C12CCCCC2 (configuration not stated) | 12%
CCOC(=O)C1CCCN(c2cc(=O)n(-c3ccccc3Cl)c(=O)[nH]2)C1 (configuration not stated) | -17%
CCOC(=O)C1=C(CNC(C)(C)CC(C)(C)C)NC(=O)NC1c1cccc([N+](=O)[O-])c1 (configuration not stated) | -14%
CC(=O)Nc1ccc(NC(=O)CSc2nc3ccccc3nc2N2CCC(C)CC2)cc1 | 4%&-15%

A portion from the list above, as a working copy:
SMILES | VDR inhibitor
Cc1noc(C)c1-c1csc(N2CCC(C(N)=O)CC2)n1 | -23%
CCOC(=O)c1c(NC(=O)COc2ccc(C)cc2C(C)(C)C)sc2c1CCC(C)C2 (configuration not stated) | 1%
CCOC(=O)C1=C(C)NC(=O)C(C(N)=O)C12CCCCC2 (configuration not stated) | 12%
CCOC(=O)C1CCCN(c2cc(=O)n(-c3ccccc3Cl)c(=O)[nH]2)C1 (configuration not stated) | -17%
CCOC(=O)C1=C(CNC(C)(C)CC(C)(C)C)NC(=O)NC1c1cccc([N+](=O)[O-])c1 (configuration not stated) | -14%
CC(=O)Nc1ccc(NC(=O)CSc2nc3ccccc3nc2N2CCC(C)CC2)cc1 | 4%&-15%

(continued)
SMILES | VDR inhibitor
COc1ccc(CCNc2nc3c(-c4cccc(C)c4)nnn3c3ccccc23)cc1OC | -4%
CCOc1ccc(NC(=O)C(C)SC(N)=O)cc1 (configuration not stated) | -10%
COc1ccc(CN(C)C(=O)C2CCN(C(=O)Nc3ccccc3)CC2)cc1OC | 4%
COc1cn(-c2ccccc2)nc1C(=O)OCC(=O)Nc1ccc(C)c(C)c1 | 38%[activator]
O=C1/C(=C/c2ccc(C(=O)O)cc2)CCC/C1=C\c1ccc(C(=O)O)cc1 | ?
CN(C)c1ccc(/C=N/NC(=O)c2nnn(-c3nonc3N)c2CN(C)c2ccccc2)cc1 | 17%
Cc1ccsc1/C=C/c1ccc2cccc(O)c2n1 | 6%
CN(C)CCC(C(=O)c1ccccc1)c1ccccn1 (configuration not stated) | -9%
C/C(=N/NC(=O)CNS(=O)(=O)c1ccc(C)cc1)c1cccc([N+](=O)[O-])c1 | 23%
CCNC(=O)COC(=O)/C=C/c1cccc(F)c1 | 0%
Cc1cccc(NC(=S)NC23CN4CN(CN(C4)C2)C3)c1 | 20%
C=CCC[C@@H](Cc1ccc(F)cc1)C(=O)OC[C@@H](NC(=O)[C@@H](CC=C)CC(=O)N[C@@H](CO)Cc1ccccc1)C(C)(C)C | -7%
CCCCn1c(=O)nc2n(-c3ccc(C)cc3)c3ccccc3cc-2c1=O | -19%
O=C(Cc1ccccc1)Nc1nc(=O)c2ccccc2s1 | -6%
O=C(CSc1ccc([N+](=O)[O-])cn1)Nc1ccc(N2CCOCC2)c(Cl)c1 | -6%
CCSc1n[nH]c(=O)[nH]c1=O | 4%
O=C(CSc1cn(CCNC(=O)c2ccccc2F)c2ccccc12)Nc1ccccc1F | 2%
OCC[C@H]1C[C@H](O)[C@@H](O)[C@]2(OCCc3ccccc32)O1 | -11%
COc1ccc(Cl)cc1N(CC(=O)NC(C(C)C)C(C)C)S(C)(=O)=O | 1%
Cc1ccc2nc(-c3ccc4c(c3)OCCO4)cc(C(=O)O)c2c1 | 9%
Cc1ccccc1-c1cc(C(=O)N2CCCC2)c2ccccc2n1 | ?
CCOC(=O)c1sc2nc(SCC#N)n(CCCN3CCCC3=O)c(=O)c2c1C | 12%
COc1ccc(NC(=O)NNC(=O)COc2cc(C)c(Cl)c(C)c2)c(OC)c1 | -5%
O=[N+]([O-])c1cc([N+](=O)[O-])c(Oc2cccnc2Br)cc1NN1CCCCC1 | -11%
CC(C)(C)c1ccc(CSc2nc3c(c(=O)[nH]2)CCCC3)cc1 | 14%
CCOC(=O)c1cc2ccc3ccccc3c2s1 | 2%
CCOC(=O)C(CC)Sc1ccc2nnc(CCNS(=O)(=O)c3ccccc3)n2n1 (configuration not stated) | 14%
COc1cccc(-n2nnc(-c3nc(-c4cccs4)no3)c2N)c1 | 3%
COc1cc(OC)cc(C(=O)NNC(=O)CCOc2ccccc2OC)c1 | -11%
CCOC(=O)C1(Cc2cccc(OC)c2)CCN(Cc2cccnc2)CC1 | -2%

Arranged by length of the SMILES (falling): some entries from above.
SMILES | VDR inhibitor
COc1ccc(NC(=O)NNC(=O)COc2cc(C)c(Cl)c(C)c2)c(OC)c1 | -5%
CCOC(=O)c1sc2nc(SCC#N)n(CCCN3CCCC3=O)c(=O)c2c1C | 12%
CCOC(=O)C1(Cc2cccc(OC)c2)CCN(Cc2cccnc2)CC1 | -2%

(continued)
SMILES | VDR inhibitor
O=c1nc(Nc2ccc(OCc3ccccc3)cc2)sc2ncccc12 | 25%
Cc1noc(C)c1COc1ccc(C(=O)Nc2ncccc2O)cc1 | 10%
O=C(c1cccc2nc3ccccc3nc12)N1CCOCC1 | -18%
CCOc1ccccc1NC(=O)N1CCC(n2nnc3cc(C)ccc32)CC1 | 5%
C=CCNC(=O)c1sccc1Oc1ccc(F)cc1[N+](=O)[O-] | -8%
Cc1c(-c2cccs2)[n+](=O)c2c(n1[O-])CCCCC2 | -2%
CCc1ccc(N2C(=O)CN(Cc3cc(OC)c(OC)c(OC)c3)C2=S)cc1 | ?
CCCCNC(=S)NNc1c(Cl)cc(Cl)cc1Cl | ?
Oc1ccc(-c2nccc(-c3ccc(Cl)cc3)n2)cc1 | -10%
COc1cc(C(C)=O)ccc1OCC(O)CN1CCN(c2ccc(F)cc2)CC1 (configuration not stated) | 12%
Cn1c(=O)cc(OCCCC(=O)NCCCN2CCN(Cc3ccccc3)CC2)c2ccccc21 | 5%
NC(=O)c1nsc(C(=O)N(Cc2cccnc2)C(C(=O)NC2CCCC2)c2ccc(F)cc2)c1N (configuration not stated) | -10%
Cc1nc2ccc(S(=O)(=O)NC(C(=O)N3CCN(c4ccc(Cl)cc4)CC3)C(C)C)cc2s1 (configuration not stated) | 13%
CCCC(=O)Nc1nnc(SCc2cc(=O)n3cccc(C)c3n2)s1 | 23%
[S-]c1nnc(-c2ccc(Br)cc2)n1-c1ccccc1.[Zn+2] | -15%
COc1ccc(-c2nc3cc(C)ccn3c2NC(=O)c2ccccc2OC)cc1 | -1%
COc1ccc(NC(=O)C2=C(C)Nc3ncnn3C2c2ccc(C)o2)cc1 (configuration not stated) | 2%
CCOc1ccc(NC(=O)c2c(NCc3cccc(OC)c3OC)sc3c2CCC3)cc1 | 0%
O=C(CCNC(=O)c1ccco1)NNC(=O)c1ccc(Br)cc1 | -17%
CCN1C(=NCCc2c[nH]c3ccccc23)N[C@@H](c2ccccc2)[C@H](C(=O)OC)[C@H]1C | 4%
COc1ccc(C(=O)NNC(=S)NC(=O)c2cccc([N+](=O)[O-])c2)cc1 | 2%
COc1ccc(/C=C/C(=O)OCC(=O)NCCCc2ccccc2)cc1OC | 8%
COc1ccc(-c2cc(C(F)(F)F)nc(S(=O)(=O)CCC(=O)N3CCOCC3)n2)cc1 | ?
O=C(CN1CCCCCC1)Nc1ccc(Br)cc1[N+](=O)[O-] | 11%
CN(C)CCCN1CC(=O)N2[C@@H](Cc3c([nH]c4ccccc34)C2(C)C)C1=O | 14%
CCc1ccc(-c2csc3nc[nH]c(=O)c23)cc1 | -14%
COc1cc(C(=O)NCCCN2CCCC2=O)cc(OC)c1OC | 11%
O=C(CN(Cc1ccc(F)cc1)S(=O)(=O)c1ccc(S(=O)(=O)N2CCOCC2)cc1)Nc1ccccc1 | -6%
CC(O)C(NC(=O)OCc1ccccc1)C(=O)OCc1ccccc1 (configuration not stated) | -6%
CS(=O)(=O)N(CC(=O)NCCSCc1c(F)cccc1Cl)c1ccc2c(c1)OCO2 | 10%
CCOc1ccc2nc(Cl)c(C3CC(c4ccco4)=NN3S(=O)(=O)c3ccccc3)cc2c1 (configuration not stated) | -7%
COc1ccc(NC(=O)CCNS(=O)(=O)c2ccc3c(c2)c(=O)n(C)c(=O)n3C)c(OC)c1 | -9%
CC(=O)OCC(=O)C1(O)CCC2C3CC(F)C4=CC(=O)CCC4(C)C3C(=O)CC21C (configuration not stated) | -5%
COc1ccccc1NC(=O)Nc1ccc2c(c1)CCC2 | 10%
CCOc1cc(/C=C/c2cccc[n+]2C)ccc1OCC(=O)Nc1ccc(C)cc1 | -12%
COC(CNC(=O)C1CCCN(S(=O)(=O)c2c(C)noc2/C=C/c2cccs2)C1)OC (configuration not stated) | -10%
O=C(CCCC(=O)c1ccccc1)Nc1ccc(F)cc1 | -1%
Cc1cccc(C)c1OCc1cc(C(=O)NCC2CCCCC2)no1 | -12%
COc1ccc(CNCCCSc2ncccn2)cc1OC | 3%
Cc1cc(NC(=O)CSc2nnc(-c3cccnc3)n2C2CCCCC2C)no1 (configuration not stated) | 15%
CCCCNc1c(-c2ccc(OC)c(SC3CCCCC3)c2)nc2cc(C)ccn12 | -12%
Cc1ccc(C(=O)NNC(=O)c2ccncc2)cc1[N+](=O)[O-] | 2%
O=C(CN(C(=O)c1csnn1)c1ccccc1)NCc1ccc2c(c1)OCO2 | 6%
O=C(NC1CCCCCCC1)c1ccc(S(=O)(=O)N2CCCC2)cc1 | -3%
CCN(CC)CCNCc1ccc(Br)cc1OCC(=O)NCc1ccccc1 | 13%
COc1cc2ccccc2cc1C(=O)NCC(c1cccs1)N(C)C (configuration not stated) | 15%
O=C(Cc1ccccc1)NCC(=O)OCC(=O)c1cccc2ccccc12 | -29%
Cc1cccc(-n2ncc3c2CCCC3NC(=O)Cn2cccn2)c1C (configuration not stated) | -11%
O=C(NNS(=O)(=O)c1ccc([N+](=O)[O-])cc1)c1cnn(-c2ccccc2)c1-n1cccc1 | -4%

Not all compounds are listed; count on the stated rates, not on these rows.
